Source: PubChem BioAssay (several laboratories)
Mtb growth: M. tuberculosis H37Rv growth inhibitors, H37Rv strain (AID 1626); M. tuberculosis H37Rv growth inhibition; higher % means a stronger effect; one-dose inhibition, % at 10 µM; IC50 in µM for titrated hits; 220,000 tested, 0.95% active;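 active = confirmed in a dose series; inconclusive = inhibition above 80% but not taken into the dose series; inactive = below 80% or under 30% at every dose of the series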;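 note: bacteria incubated seven days before Alamar blue readout; 0% = bacteria only wells and 100% = bacteria with antibiotic wells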
RecA intein inh: Mtb RecA intein splicing inhibitors, primary screen, biochemical, fluorescence, HTS; inhibition, %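 (about 9 µM by stock and volumes)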; 290,000 tested, 0.75% active; cell-free RecA intein splicing; Protein RecA (Mycobacterium tuberculosis (strain ATCC 25618 / H37Rv)), P9WHJ3; in the data active = inhibition above about 30%; inconclusive = no clear call, values can overlap the other calls;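 note: 0% = vehicle wells and 100% = reference inhibitor control wells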
Target sequence (P9WHJ3 whole entry, looked up): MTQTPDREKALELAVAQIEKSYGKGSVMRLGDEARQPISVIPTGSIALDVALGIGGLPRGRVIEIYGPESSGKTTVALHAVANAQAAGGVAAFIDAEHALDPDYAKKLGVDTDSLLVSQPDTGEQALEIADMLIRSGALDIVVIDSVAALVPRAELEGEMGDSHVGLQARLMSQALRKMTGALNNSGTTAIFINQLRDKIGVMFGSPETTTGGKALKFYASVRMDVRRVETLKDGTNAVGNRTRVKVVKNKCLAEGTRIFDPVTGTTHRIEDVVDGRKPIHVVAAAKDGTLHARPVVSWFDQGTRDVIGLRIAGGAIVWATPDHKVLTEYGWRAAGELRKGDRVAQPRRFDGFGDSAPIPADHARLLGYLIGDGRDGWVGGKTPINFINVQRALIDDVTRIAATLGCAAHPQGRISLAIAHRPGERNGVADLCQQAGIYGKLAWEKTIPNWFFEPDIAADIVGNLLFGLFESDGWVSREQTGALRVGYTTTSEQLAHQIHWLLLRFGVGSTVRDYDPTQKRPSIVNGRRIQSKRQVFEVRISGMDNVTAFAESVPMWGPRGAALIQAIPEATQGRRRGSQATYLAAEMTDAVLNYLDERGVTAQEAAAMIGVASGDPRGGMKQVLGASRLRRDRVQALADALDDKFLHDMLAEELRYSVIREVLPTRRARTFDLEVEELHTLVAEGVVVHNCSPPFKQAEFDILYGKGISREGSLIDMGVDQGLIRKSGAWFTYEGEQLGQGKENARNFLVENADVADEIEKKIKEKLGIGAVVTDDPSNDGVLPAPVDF
YopH inh: YopH tyrosine phosphatase inhibitors, primary screen, biochemical, fluorescence Ex485/Em525 | inhibition, %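 (about 10 µM by stock and volumes)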 | 140,000 tested, 0.16% active;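 active = inhibition of 50% or more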;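 note: controls were vehicle for no effect and minimum signal wells for full effect; inactives centre near -20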
Arbovirus anti: antivirals against arbovirus infection, primary screen, cell-based, full library, 10K replicate subset. arbovirus infection cell-based antiviral screen. inhibition, % at 10 µM. 200,000 tested, 0.37% active. AID 1251, 2008;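 active = inhibition from about 30%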;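 note: bluetongue infection of BSR cells; cell survival read as ATP light after 72 h; 0% = infected wells without compound and 100% = uninfected wells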
Mtb betalactam: beta-lactam sensitization of Mtb H37Rv, H37Rv; M. tuberculosis H37Rv growth with meropenem, percent inhibition; hits of this screen are not shown here; inhibition, % at 25 µM; 330,000 tested, 0.27% active; AID 434955, 2010;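 active = about 74% or more and at least 40 points above the plate without the antibiotic, then above 30% in a dose series; inconclusive = first-round hits that could not be retested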;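 note: growth measured after seven days incubation then overnight dye step; 0% = bacteria only wells and 100% = bacteria with antibiotic; twin plates without the antibiotic show which effects depend on it; some results filed as inactive read as strong as hits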
Arbovirus anti repeat: further read-out of Arbovirus anti, marked with its call; inhibition, %; measured here: 10K subset replicate screen; many hits read low in the repeat;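 first of two repeat runs on a subset; 0% = infected and 100% = uninfected wells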
Numbers without * were called inactive; ? = inconclusive; · = no result given.

SMILES	Mtb growth	RecA intein inh	YopH inh	Arbovirus anti	Mtb betalactam	others
Cn1cnc([N+](=O)[O-])c1Sc1n[nH]c(N)n1	-5%	11	·	·	-8
COc1ccccc1N1C(=O)S/C(=C\c2cccs2)C1=O	·	0.8	·	·	-1
Cc1ccc(S(=O)(=O)N2CCCOC2CNC(=O)C(=O)NCc2ccc3c(c2)OCO3)cc1 (stereo unspecified)	·	-0.5	·	·	-14
Nc1cc(=O)[nH]c(SCC(=O)Nc2ccc(S(=O)(=O)N3CCOCC3)cc2)n1	-9%	·	-2	6	2
Cc1cc(/C=N/NC(=O)c2cccnc2)c(C)n1CC(C)C	-5%	-3.1	·	2	1
CCOC(=O)C(C)Sc1nnc(CSc2nc3nc(C)cc(C)n3n2)o1 (stereo unspecified)	0%	-0.2	-15	0	-8
Cc1ccc2c(COC(=O)c3n[nH]c4ccccc34)cc(=O)oc2c1	-2%	0.8	-23	6	-22
CC(=O)OC1C2CCC1C(N1CCCC1)CC2 (stereo unspecified)	-4%	0.0	-1	-1	3
COc1ccc(CC(=O)NCCS(=O)(=O)N2CCN(c3ccccc3)CC2)cc1	·	1.1	·	·	-10
Cc1nc(C(Cl)(Cl)Cl)nc2[nH]ccc(=O)c12	-10%	-0.3	·	-6	-7
COc1ccc(NC(=O)C(CC(=O)O)Cc2ccc(C)cc2)cc1 (stereo unspecified)	-3%	-0.8	·	-3	-3
COc1ccc(/C=N/NC(=O)c2ccc(N(C)S(=O)(=O)c3ccccc3)cc2)cc1	4%	2.2	·	3	-1
COc1ccc(NC(=S)N2CCC(N(C)CCN3CCOCC3)CC2)cc1Cl	1%	-6.4	-5	3	7
COC(Cc1nnc(SC)n1-c1ccccc1)OC	1%	2.2	-23	-1	-13
O=C(Cn1ncc2ccsc2c1=O)N1CCC2(CC1)OCCO2	-10%	-13	-50	14	-1
Cc1ccc(CC(=O)Nc2ccc(S(=O)(=O)Nc3nccc(C)n3)cc2)cc1	·	1.6	·	·	1
O=C(CSc1ncc(-c2ccc(F)cc2)[nH]1)N1CCCCC1	1%	-0.8	-24	0	-5
O=C(Cn1cc(C(F)(F)F)ccc1=O)Nc1cccc(S(=O)(=O)N2CCOCC2)c1	0%	2.4	-24	-4	5
CCN(CC)CCCN(Cc1cc2cc(OC)ccc2[nH]c1=O)C(=O)Nc1ccccc1	·	0.2	·	·	0
Cc1cc(C)cc(NC(=O)CSc2nc3c(c(=O)[nH]2)CN(Cc2ccc(F)cc2)CC3)c1	5%	-1.2	-20	21	46
Nc1nc(SCc2ccc(Cl)cc2Cl)nc2nc3c(cc12)CCCC3	18%	-2.0	-15	-24	?
C=CCn1c(=O)c(C(=O)NC2CC2)c(O)c2cc(OC)c(OC)cc21	·	-1.3	·	·	1
O=C1C=C(NCc2ccc(Cl)c(Cl)c2)C2(CCCCC2)O1	8%	7.4	1	12	6
Cc1cc(C)c2c(=O)[nH]c(SCC(=O)Nc3ccc(Br)cc3)nc2n1	·	-1.6	·	·	4
CCOC(=O)C1CCN(CC(O)COCc2ccc(Cl)cc2)CC1 (stereo unspecified)	·	-3.0	·	·	8

Nothing new here: 3 of the compounds above.
SMILES	Mtb growth	RecA intein inh	YopH inh	Arbovirus anti	Mtb betalactam	others
Cn1cnc([N+](=O)[O-])c1Sc1n[nH]c(N)n1	-5%	11	·	·	-8
COc1ccccc1N1C(=O)S/C(=C\c2cccs2)C1=O	·	0.8	·	·	-1
Cc1ccc(S(=O)(=O)N2CCCOC2CNC(=O)C(=O)NCc2ccc3c(c2)OCO3)cc1 (stereo unspecified)	·	-0.5	·	·	-14

Continued.
SMILES	Mtb growth	RecA intein inh	YopH inh	Arbovirus anti	Mtb betalactam	others
Cc1occc1-c1nnc(SCc2nc3ccccc3c(=O)n2CC#N)n1C	-8%	7.3	-20	4	-9
Nn1c(SCC(=O)Nc2ccc(F)cc2)nnc1-c1ccccn1	-15%	-0.3	-56	2	8	Arbovirus anti repeat=4
CC(=O)Nc1ccc(N=Nc2c(C)[nH]n(C(N)=S)c2=O)cc1	-7%	3.0	·	19	57
CCCc1ccc2oc(C(=O)N3CCC[C@H]3CO)c(C)c2c1	·	-0.2	·	·	3
CC(=O)N1CCC(N(CCN2CCOCC2)C(=S)Nc2cc(C)cc(C)c2)CC1	6%	-1.2	·	3	-4
C=C(C)C1Cc2nc(N)nc(C)c2C1 (stereo unspecified)	2%	-0.2	-20	-3	-5
O=C(N/N=C/c1c(Cl)cccc1Cl)c1cccc(F)c1	-1%	-0.6	-20	9	·
Cc1cc(O)c(C(C)C)cc1N=Nc1ccccc1C(=O)O	-6%	-0.4	·	·	11
COc1ccc(C=O)cc1OC(=O)N1CCOCC1	·	-2.5	·	·	0
CC(C)C(=O)NC(=S)Nc1ccc(S(=O)(=O)Nc2ccccc2)cc1	10%	4.7	-6	11	3
O=C(N/N=C/c1ccc(OCCCF)cc1)c1cc(OCC(F)(F)F)ccc1OCC(F)(F)F	-7%	-5.3	-35	-8	-1
COc1ccc(OC)c(/C=N/NC(=O)c2cc3c(OC)cccc3[nH]2)c1	4%	-1.5	·	·	37
CCn1c(CCNC(=O)c2ccc(Cl)cc2)n[nH]c1=S	-5%	-3.5	-8	8	3
CC(C)(C)NCC(=O)c1c[nH]c2ccccc12	·	0.6	-40	15	-8
Cc1cc(C)n(-c2ncnc3c2oc2ccccc23)n1	4%	0.9	-40	4	-5
COc1ccc(OC)c(C(=O)COC(=O)c2cc(C)oc2C)c1	-2%	0.8	2	5	-2
CC1(C)CN(c2ccc(Br)cc2Br)C1=O	1%	0.9	·	-4	3
CC1(C)C2CCC1(C)C(OCCNCCOC(=O)Nc1ccccc1)C2 (stereo unspecified)	6%	2.5	·	·	-5
CCCC1CC(CSc2ncn[nH]2)OC1=O (stereo unspecified)	-3%	-0.8	-16	6	0
COCCNC(=O)c1cc(Br)ccc1Cl	6%	-0.1	32	3	-1
N#Cc1cccc(S(=O)(=O)Nc2c(NC3CCCCC3)c3ccccc3oc2=O)c1	·	-0.8	·	·	-3
O=C(/C=C/c1ccc(S(=O)(=O)N2CCOCC2)cc1)NC(=S)Nc1ccc(Cl)cc1Cl	8%	-1.0	·	10	-1
COc1ccccc1N1CCN(C(=S)NC(=O)/C=C/c2ccccc2)CC1	-7%	0.3	·	·	2
CC1=Nc2ccccc2/C1=C\c1nc(-c2ccccc2)oc1O	4%	0.8	-21	-4	53
CN(c1ccccc1)S(=O)(=O)c1cccc(NC(=O)c2ccncc2)c1	5%	4.3	·	·	-4
The results go on:
SMILES	Mtb growth	RecA intein inh	YopH inh	Arbovirus anti	Mtb betalactam	others
CCOC(=O)[C@@H]1[C@H]2COc3ccc(Br)cc3[C@@H]2N2C(=O)N(c3ccc(Cl)cc3)C(=O)[C@]12C	-6%	3.7	·	·	-5
CCOC(=O)C1CCCN(C(=O)CCNS(=O)(=O)c2ccc3c(c2)CCC(=O)N3)C1 (stereo unspecified)	-7%	-3.4	-27	10	-1
COc1ccc(N2C(=O)/C(=C\c3ccco3)N=C2SCC(N)=O)cc1Cl	9%	18	·	14	1
CCOc1ccc(NC(=O)CN2C(=O)COc3ccccc32)cc1	·	-0.7	·	·	-3
COc1ccc(C(=O)NC2CCCc3ccccc32)cc1S(=O)(=O)N1CCOCC1 (stereo unspecified)	6%	-2.6	·	3	-4
COc1cc(C(=O)Nc2ccc(N3CCN(C(=O)c4ccc(C)cc4)CC3)cc2)cc(OC)c1OC	·	-1.9	·	·	8
COCCN(C(=O)c1csnn1)C(C(=O)NC1CCCCC1)c1sccc1C (stereo unspecified)	-5%	5.0	-16	-5	7
C/C(=N\Nc1ccc(C(=O)O)cc1)c1ccc(-n2ccnc2)cc1	12%	0.5	·	-1	24
COc1cccc(OC)c1CNC(=O)CCSCc1ccccc1F	6%	0.4	·	1	0
COc1ccc(CCNc2nc3ccccc3n3cnnc23)cc1OC	1%	1.1	·	·	-4
CSc1ncccc1C(=O)OCC(=O)NC(N)=O	-7%	3.9	13	4	-5
NC(=O)CSc1nc(N)c2c3c(sc2n1)CCCCC3	-2%	2.3	-28	3	43
O=S(=O)(Cc1ccccc1)N1CCN(Cc2ccc3c(c2)OCO3)CC1	-9%	-0.7	7	-5	5
Clc1ccc(-c2csc(N3CCOCC3)n2)cc1	2%	1.1	·	9	·
COc1ccc(C(c2nnnn2Cc2ccccc2)N2CCN(C(=O)c3ccco3)CC2)cc1OC (stereo unspecified)	-2%	-0.1	10	1	24
COC(=O)c1nc(NC(=O)c2ccccc2Br)n[nH]1	0%	·	·	6	·
CCNc1nc(Cl)nc(NCc2ccccc2)n1	-3%	-1.1	-31	-10	11
COc1ccc(OC)c(CN2C(=O)c3ccccc3C2C(=O)NCC2CCCO2)c1 (stereo unspecified)	-1%	-1.5	·	1	13
Cc1cc(C)c(C)c(OCCCn2ccnc2)c1	11%	4.0	-10	8	49
Cc1ccccc1C(=O)N1CCN(c2ccc(NC(=O)Cc3ccccc3)cc2)CC1	·	0.0	·	·	-7
Fc1ccc(C2=CCN(C(c3cccs3)c3nnnn3CCc3ccccc3)CC2)cc1 (stereo unspecified)	11%	8.0	-9	-2	-7
Cc1c(C(=O)NCC2CCCO2)oc2ccc(S(=O)(=O)N3CCCC3)cc12 (stereo unspecified)	-7%	0.2	-28	-1	3	Arbovirus anti repeat=4
CCC1CCCCN1C(=O)c1ccc(OC2CCN(C(=O)COC)CC2)cc1 (stereo unspecified)	·	-2.2	·	·	?
CC(C)C(C)NC(=O)Cn1cnc2c(oc3ccccc32)c1=O (stereo unspecified)	·	-1.5	·	·	3
Cc1ccsc1C(=O)OCC(=O)NCc1ccc2c(c1)OCO2	1%	-0.3	-22	1	-1
Later entries.
SMILES	Mtb growth	RecA intein inh	YopH inh	Arbovirus anti	Mtb betalactam	others
Cn1c(NCc2cc(Br)ccc2O)nc2ccccc21	0%	·	-40	1	0
Nc1cc(Oc2ccc(F)cc2F)cc([N+](=O)[O-])c1	6%	-2.1	·	-2	10
CCc1nnc(NC(=O)CSc2nnc(C3CC3)n2C)s1	·	0.0	·	·	-9
CCOC(=O)c1cnc(-n2[nH]c(C)cc2=O)[nH]c1=O	1%	5.6	·	-2	2
Cc1cccc2nc(-c3cccc(NC(=O)Cc4ccccc4)c3)cn12	10%	1.7	-24	-3	0
CCN(CC)C(=O)CSc1nc(N)c(C(=O)Nc2ccc(OC)cc2)s1	-2%	-0.1	-21	-2	5
NS(=O)(=O)c1ccc(O)c(NC(=O)c2ccc([N+](=O)[O-])o2)c1	-2%	-3.5	·	·	·
O=C1CCC(C(=O)N2CCCC2)CN1Cc1cccc(C(F)(F)F)c1 (stereo unspecified)	·	-0.9	·	·	2
CCOC(=O)COn1c(=O)c[n+]([O-])c2ccccc21	-5%	-8.1	8	3	0
Cc1ccc(-c2nc3c(c(SCC(=O)N4CCOCC4)n2)COC(C)(C)C3)cc1	·	1.9	·	·	-2
Cc1cccc(N(C(=O)CS(=O)CC(=O)Nc2ccc3c(c2)OCO3)C(C)C(=O)NC2CCCC2)c1C (stereo unspecified)	·	1.1	·	·	-10
CN(CC(=O)Nc1cccc(F)c1)C(=O)CCNC(=O)c1ccc(Br)cc1	·	1.1	·	·	0
CC(C)CCN1CCN(Cc2ccc(Sc3nncn3C)o2)CC1CCO (stereo unspecified)	-4%	-1.3	·	3	-2
Cc1nn(C)cc1C(C)NC(=O)c1cc(COc2ccc(F)c(F)c2)on1 (stereo unspecified)	·	-3.4	·	·	-1
OCCC#Cc1ccc(CN2CCN(C3CCCCC3)C(CCO)C2)cc1 (stereo unspecified)	6%	-2.0	·	-1	1
O=C(NCc1ccccc1Cl)c1ccc(S(=O)(=O)Nc2cccc(C(F)(F)F)c2)cc1	1%	8.0	-29	-16	-6
COc1c(Cl)cnn(-c2cccc(C)c2)c1=O	·	0.4	·	·	-7
Cc1csc(NC(=O)Cc2nn(C)c(=O)c3ccccc23)n1	6%	-1.1	-23	10	-12
CSc1nnc(C)c(/C=C/NOCc2cccc(F)c2)n1	2%	6.5	·	-11	2
CCOc1ccc(-n2c(=O)[nH]cc(C(=O)N3CCc4ccccc43)c2=O)cc1	-3%	0.4	-11	-7	-5

Random excerpt: four entries already listed.
SMILES	Mtb growth	RecA intein inh	YopH inh	Arbovirus anti	Mtb betalactam	others
CCOc1ccc(NC(=O)CN2C(=O)COc3ccccc32)cc1	·	-0.7	·	·	-3
O=C(CSc1ncc(-c2ccc(F)cc2)[nH]1)N1CCCCC1	1%	-0.8	-24	0	-5
NC(=O)CSc1nc(N)c2c3c(sc2n1)CCCCC3	-2%	2.3	-28	3	43
CN(c1ccccc1)S(=O)(=O)c1cccc(NC(=O)c2ccncc2)c1	5%	4.3	·	·	-4

Some of the compounds tested; the hit share may differ from the screen's.
